Bioassay records (PubChem BioAssay)
miR-21 reporter – qHTS Assay for Modulators of miRNAs and/orActivators of miR-21 | HeLa miR-21 FLuc reporter, luciferase, 48 h | Potency, µM (titrated, usually from 38.3 µM), for inactives: at the highest dose reporter change, positive = more light | 340,000 tested, under 10 active; active = well fitted rising curve with a large enough effect; inconclusive = small, poorly fitted or top-dose-only effect; inactive = no such curve, though single readings can be large or run the other way;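 further: % of control where 0% means no effect; miR-21 action dims this reporter so a rising signal means less miR-21 action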
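Compounds were titrated across several concentrations (up to approximately 40 uM) and incubated 48 hours with HeLa miR-21-FLuc reporter cells (miR-21 target sequence downstream of FLuc, endogenous miR-21). Readout was firefly luciferase luminescence after lytic detection reagent.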
Rango complex inh – qHTS Assay for Inhibitors of Rango (Ran-regulated importin-beta cargo) - Importin beta complex formation. Rango CFP/YFP FRET sensor + importin beta, 45 min. Potency, µM (doses to about 92.2 µM), for inactives: at the highest dose inhibition of complex formation. 340,000 tested, 0.031% active. AID 540263, 2011; active = rising FRET ratio curve, often small or poorly fitted; inconclusive = mostly compound fluorescence or quenching in the first reads; inactive = flat curves in all reads;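 further: potency means the concentration at half of the fitted maximal effect; 0% = DMSO wells and 100% = buffer wells lacking importin beta; nearly all actives have a fitted effect of over 15% in size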
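FRET biosensor Rango (snurportin 1 IBB between N-terminal EYFP and C-terminal Cerulean), 50 nM in PBS/1 mM DTT/0.02% Tween-20/0.1% BSA, preincubated 5 min RT with compound; 0.125 microM importin beta added, 45 min RT, CFP/YFP FRET ratio read.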
GLA inh pH 4.5 – qHTS Assay for Inhibitors of Human alpha-Galactosidase at pH 4.5; AID 1467, 2008; purified enzyme, 4-MU-alpha-Gal fluorescence, pH 4.5; 230,000 tested, under 10 active; activity change, negative = inhibition, % at 105 µM; inconclusive = small, poorly fitted or top-dose-only inhibition, or a rising curve; inactive = flat fitted curve, though single readings scatter; no compound was filed as active;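 further: 0% = full activity with enzyme and -100% = basal without enzyme; dose as in the result columns while the protocol names 77 µM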
Target sequence (P06280 whole entry, looked up): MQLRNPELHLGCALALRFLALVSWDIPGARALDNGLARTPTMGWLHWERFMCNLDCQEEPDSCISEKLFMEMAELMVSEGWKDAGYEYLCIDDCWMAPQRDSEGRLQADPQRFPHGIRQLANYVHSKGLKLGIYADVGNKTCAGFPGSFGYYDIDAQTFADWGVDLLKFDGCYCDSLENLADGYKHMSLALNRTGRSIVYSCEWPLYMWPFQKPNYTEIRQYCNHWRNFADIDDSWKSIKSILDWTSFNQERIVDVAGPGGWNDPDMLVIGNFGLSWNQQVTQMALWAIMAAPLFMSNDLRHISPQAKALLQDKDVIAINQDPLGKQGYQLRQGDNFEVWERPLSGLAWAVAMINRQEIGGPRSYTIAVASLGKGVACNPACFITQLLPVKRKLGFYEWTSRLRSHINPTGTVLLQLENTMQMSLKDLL
Rango release inh – qHTS Assay for Inhibitors of RanGTP induced Rango (Ran-regulated importin-beta cargo) - Importin beta complex dissociation | Biochemical FRET Rango-importin beta, RanGTP-induced dissociation | AID 540253, 2011 | Snurportin-1 (Homo sapiens) + GTP-binding nuclear protein Ran (Homo sapiens) + Importin … | 340,000 tested, 0.071% active | Potency, µM (titrated, usually from 46.1 µM), for inactives: top-dose activity change, negative = inhibition; active means falling FRET ratio curve, often poorly fitted, with flat reads before Ran was added; inconclusive means other falling curves, or compound fluorescence or quenching; inactive means flat or rising ratio curve;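 further: potency means the concentration at half of the fitted maximal effect; % of control where 0% means no effect; nearly all actives have a fitted effect of over 45% in size; -100% = wells without RanGTP and RCC1; the record marks most hits as doubtful in a second field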
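Compounds sat 5 min at room temperature with 0.1 uM Rango biosensor plus 0.25 uM importin beta, then FRET pre-read. RanGTP-RCC1 (0.6 uM Ran, 2mM GTP, 0.2 uM RCC1) added for 45 min, and the CFP/YFP post-read measured blocked complex dissociation.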
* hit, by the source's call; & = joins results of further samples.

For O=[N+]([O-])c1ccc(C=NNc2ccc(S(=O)(=O)O)cc2)cc1 the results were Rango complex inh 7.1% and Rango release inh -3%.
`Cc1ccc(S(=O)(=O)CCc2nc3ccccc3s2)cc1C` gave miR-21 reporter -4%, Rango complex inh 1.2%, GLA inh pH 4.5 -13 and Rango release inh 6%.
`Nc1nn(S(=O)(=O)c2ccccc2)cc1-c1cccc([N+](=O)[O-])c1` gave miR-21 reporter -2%, Rango complex inh 3.2%, GLA inh pH 4.5 0 and Rango release inh 16%.
For CCC(=O)N1CCc2cc(Br)cc(S(=O)(=O)NCCCN(C)Cc3ccccc3)c21 the results were miR-21 reporter -5%, Rango complex inh 0.1% and Rango release inh 14%.
`Cc1nc(N)c(C#N)c(-c2cccnc2)c1-c1ccccc1` gave miR-21 reporter -3%, Rango complex inh -1.9% and Rango release inh 1%.
N#CCCN(C(=O)COC(=O)c1ccc2ccccc2n1)c1ccccc1 was read as Rango complex inh 2.3% and Rango release inh -1%.
For O=C(NC1CCCc2ccccc21)c1cncc(Br)c1 (stereo not given) the results were miR-21 reporter 2%, Rango complex inh -0.4%, GLA inh pH 4.5 2 and Rango release inh -2%.
CCCCn1c(=O)c(CCC(=O)OCC(=O)NC(=O)NCCC(C)C)nc2ccccc21 was read as miR-21 reporter -1%, Rango complex inh 6.4%, GLA inh pH 4.5 -7 and Rango release inh 5%.
For COc1ccc(OCc2cc(C(=O)NCC(C)Oc3cccnc3)no2)c(Cl)c1 (stereo not given) the results were miR-21 reporter -18%, Rango complex inh -3.0% and Rango release inh 24%.
CCC1=NN(C(=O)c2ccc(Cl)cc2)C(O)(c2ccc(C)cc2)C1 (stereo not given) was read as miR-21 reporter -5%, Rango complex inh -0.1% and Rango release inh -6%.
Cc1nnc(SCC(=O)Nc2sccc2C#N)n1Cc1ccccc1 was read as miR-21 reporter -6%, Rango complex inh -3.0%, GLA inh pH 4.5 4 and Rango release inh -8%.
For COC(=O)C(Cc1ccc(O)cc1)NC(=O)C12CC3CC(CC(C3)C1)C2 (stereo not given) the results were miR-21 reporter 2%, Rango complex inh -2.6%, GLA inh pH 4.5 5 and Rango release inh 0%.
Screening CN(C)S(=O)(=O)N1CCN(C(=O)c2cccs2)CC1 returned miR-21 reporter -5%, Rango complex inh 0.2%, GLA inh pH 4.5 1 and Rango release inh -4%.
`O=c1c(/C=C(\O)c2ccc(F)cc2)nc2ccccc2n1-c1ccccc1` gave miR-21 reporter -7%, Rango complex inh inconclusive, GLA inh pH 4.5 5 and Rango release inh inconclusive.
For O=C(c1c[nH]c(C(=O)C(Cl)(Cl)Cl)c1)c1ccccc1Br the results were miR-21 reporter 6%, Rango complex inh 2.8%, GLA inh pH 4.5 -12 and Rango release inh 3%.
Screening Cc1ccc(S(=O)(=O)Nc2nc3ccccc3nc2N2CCOCC2)cc1 returned Rango complex inh -0.1% and Rango release inh 19%.
CCOc1ccc(/C=C2/SC(=O)NC2=S)cc1 was read as miR-21 reporter -40%, Rango complex inh 7.8%, GLA inh pH 4.5 -24 and Rango release inh -4%.
CC(=O)NCc1ccc(S(=O)(=O)N/N=C/c2ccc(N(C)C)cc2)cc1 was read as miR-21 reporter -1%, Rango complex inh -1.1%, GLA inh pH 4.5 0 and Rango release inh -6%.
`CC(=O)c1cccc(NC(=O)/C(=C\c2cccnc2)NC(=O)c2ccccc2)c1` gave miR-21 reporter -3%, Rango complex inh -2.0% and Rango release inh 12%.
For CCCCC(=O)Nc1cccc(NC(=O)c2ccccc2Br)c1 the results were miR-21 reporter -3%, Rango complex inh 4.6%, GLA inh pH 4.5 6 and Rango release inh -13%.
Screening Cc1ccc(NC(=O)[C@H](C)NC(=O)C2CCN(C(=O)[C@H](CC(C)C)NC(=O)OC(C)(C)C)CC2)cc1 returned miR-21 reporter 0%, Rango complex inh 0.4% and Rango release inh 2%.
CN(C)/C=N/c1nc2nccc(-c3ccc(F)cc3)n2n1 was read as miR-21 reporter 0%, Rango complex inh -4.2%, GLA inh pH 4.5 13 and Rango release inh -1%.
Screening O=C(Nc1cccc(NC(=O)c2ncn[nH]2)c1)c1cccc(Cl)c1 returned miR-21 reporter 8%, Rango complex inh -0.6%, GLA inh pH 4.5 -14 and Rango release inh 15%.
`CCCn1c(SCC(=O)NCCc2ccccc2)nnc1-c1ccco1` gave miR-21 reporter -4%, Rango complex inh -0.6%, GLA inh pH 4.5 4 and Rango release inh 22%.
Cn1c(=O)[nH]c(=O)c2c1nc(NCCCn1ccnc1)n2Cc1cccc(Br)c1 was read as miR-21 reporter -3%, Rango complex inh 3.5%, GLA inh pH 4.5 2 and Rango release inh 12%.
COc1cc(/C=N/Nc2nc(=O)[nH]nc2C)cc(OC)c1O was read as miR-21 reporter -10%, Rango complex inh inconclusive, GLA inh pH 4.5 -7 and Rango release inh -24%.
`COc1cc(C2c3cc4c(cc3OC(NNC(N)=S)C2C)OCO4)cc(OC)c1OC` (stereo not given) gave Rango complex inh 2.5% and Rango release inh 1%.
Fc1cccc(CSc2nnc3c(n2)[nH]c2ccccc23)c1 was read as miR-21 reporter -30%, Rango complex inh -1.5%, GLA inh pH 4.5 9 and Rango release inh -3%.
CCOc1ccc(NC(=O)CN2C(=O)COc3ccc(S(=O)(=O)N4CCCCC4)cc32)cc1 was read as miR-21 reporter 0%, Rango complex inh 4.8% and Rango release inh 0%.
`Cc1cc(C)cc(N=Cc2[nH]c3ccc(Br)c(Cl)c3c2O)c1` gave miR-21 reporter -9%, Rango complex inh inconclusive, GLA inh pH 4.5 1 and Rango release inh inconclusive.
O=C(Nc1ccccc1)Nc1ccc(NC(=O)c2ccccc2O)cc1 was read as miR-21 reporter -15%, Rango complex inh 2.6% and Rango release inh 1%.
For COC(=O)c1cccc(N(C(=O)c2ccco2)C(C(=O)NC2CCCC2)c2ccco2)c1 (stereo not given) the results were miR-21 reporter -8%, Rango complex inh -1.2%, GLA inh pH 4.5 -3 and Rango release inh 8%.
Screening C=C(C)[C@@H]1CC=C(CN2CCC(N3CCC(C(=O)N4CCCC4)CC3)CC2)CC1 returned miR-21 reporter 12%, Rango complex inh -1.0%, GLA inh pH 4.5 3 and Rango release inh 17%.
`CC1CCN(c2ccc3c(c2)S(=O)(=O)c2cccc(C(=O)O)c2C3=O)CC1` gave Rango complex inh inconclusive and Rango release inh inconclusive.
Screening S=c1[nH]nc(-c2ccc(Br)o2)n1Cc1ccccc1 returned miR-21 reporter -1%, Rango complex inh 6.1%, GLA inh pH 4.5 4 and Rango release inh -19%.
`CN(CC(=O)Nn1cnnc1)S(=O)(=O)c1ccc(Br)cc1` gave miR-21 reporter -2%, Rango complex inh -0.2%, GLA inh pH 4.5 4 and Rango release inh 10%.
COc1ccc(OC)c(CN2C(=O)c3ccccc3C2C(=O)NCc2cccnc2)c1 (stereo not given) was read as miR-21 reporter -3%, Rango complex inh -3.3%, GLA inh pH 4.5 5 and Rango release inh -1%.
`C[C@H](NS(=O)(=O)c1ccc2c(c1)OCCCO2)C(=O)N1CCN(Cc2ccccc2)CC1` gave Rango complex inh -1.1% and Rango release inh 8%.
For CN(C(=O)COC(=O)/C=C/c1ccc2ccccc2n1)c1c(N)n(Cc2ccccc2)c(=O)[nH]c1=O the results were Rango complex inh -2.7% and Rango release inh -20%.
Screening CCOC(=O)C(NC(=O)CC)(Nc1cc(C)on1)C(F)(F)F (stereo not given) returned miR-21 reporter -2%, Rango complex inh 0.7%, GLA inh pH 4.5 3 and Rango release inh 5%.
For CC(=O)OCC1OC(Sc2cccc3cccnc23)C(OC(C)=O)C(OC(C)=O)C1OC(C)=O (stereo not given) the results were miR-21 reporter 3%, Rango complex inh -3.4%, GLA inh pH 4.5 -5 and Rango release inh -7%.
For CCc1nnc(NC(=O)C2CCCCC2)s1 the results were miR-21 reporter -16%, Rango complex inh -0.6%, GLA inh pH 4.5 -1 and Rango release inh 1%.
Screening CC(C)(C)C(=O)NC(c1ccccc1)c1c(O)ccc2ccccc12 (stereo not given) returned miR-21 reporter 2%, Rango complex inh -0.3% and Rango release inh 0%.
For CCCN1CCC(=O)N([C@H](COc2ccccc2)Cc2ccccc2)CC1 the results were miR-21 reporter 0%, Rango complex inh -2.2% and Rango release inh -12%.
CCc1sc(C(=O)NCc2ccco2)cc1C was read as miR-21 reporter -22%, Rango complex inh -2.7% and Rango release inh 0%.
Screening Nc1cc(-c2ccccc2)ccc1O returned miR-21 reporter -21%&-26%, Rango complex inh 0.3%, GLA inh pH 4.5 1&-14 and Rango release inh 8%.
Cc1cc(C(=O)N2CCCC(N3CCN(c4cccc(C(F)(F)F)c4)CC3)C2)c(C)o1 (stereo not given) was read as miR-21 reporter 19%, Rango complex inh -0.9% and Rango release inh -5%.
For N#CCNc1ccc([N+](=O)[O-])cc1C#N the results were miR-21 reporter 1%, Rango complex inh 0.4%, GLA inh pH 4.5 -4 and Rango release inh -1%.
C=CCN1CC(=O)N2C(c3ccccc3)c3[nH]c4ccccc4c3C[C@H]2C1=O (stereo not given in full) was read as miR-21 reporter 4%, Rango complex inh 0.4% and Rango release inh -1%.
Screening CCOCCCn1c(SCC(=O)NCc2ccco2)nc2c(sc3ccccc32)c1=O returned miR-21 reporter 12%, Rango complex inh -0.5%, GLA inh pH 4.5 -1 and Rango release inh -7%.
`Cn1ncc(Cl)c1C(=O)Nc1ccc2c(c1)OCO2` gave miR-21 reporter -21%, Rango complex inh 1.5% and Rango release inh 8%.
Screening NC(=O)C1(N2CCCCC2)CCN(C(=O)NC2CCCCC2)CC1 returned miR-21 reporter -3%, Rango complex inh 0.5%, GLA inh pH 4.5 1 and Rango release inh 1%.
Screening Cc1ccc(C(=O)C2COC(=O)C2)cc1 (stereo not given) returned miR-21 reporter -3%, Rango complex inh 1.5%, GLA inh pH 4.5 5 and Rango release inh -2%.
CCOC(=O)NC(NCC(O)c1ccccc1)(C(F)(F)F)C(F)(F)F (stereo not given) was read as miR-21 reporter -3%, Rango complex inh 0.1%, GLA inh pH 4.5 -8 and Rango release inh 0%.
S=C(NCC1CCCO1)N1CCN(c2nc(-c3ccc(Cl)cc3)cs2)CC1 (stereo not given) was read as miR-21 reporter 23%, Rango complex inh 1.8%, GLA inh pH 4.5 -6 and Rango release inh -8%.
Screening CCN1CCN(CCNC(=O)c2ccc3nc(-c4cccc(C)c4)c(-c4cccc(C)c4)nc3c2)CC1 returned miR-21 reporter -2%, Rango complex inh 5.2% and Rango release inh 3%.
Cn1ncc2c(=O)[nH]nnc21 was read as Rango complex inh -1.7% and Rango release inh 0%.
For O=C(NC1CC1)c1ccc(-c2ccccc2)cc1 the results were miR-21 reporter -61%, Rango complex inh 0.1%, GLA inh pH 4.5 18 and Rango release inh 0%.

Reprinted at random: 6 entries already listed.
Fc1cccc(CSc2nnc3c(n2)[nH]c2ccccc23)c1 was read as miR-21 reporter -30%, Rango complex inh -1.5%, GLA inh pH 4.5 9 and Rango release inh -3%.
Screening CCN1CCN(CCNC(=O)c2ccc3nc(-c4cccc(C)c4)c(-c4cccc(C)c4)nc3c2)CC1 returned miR-21 reporter -2%, Rango complex inh 5.2% and Rango release inh 3%.
Screening C=C(C)[C@@H]1CC=C(CN2CCC(N3CCC(C(=O)N4CCCC4)CC3)CC2)CC1 returned miR-21 reporter 12%, Rango complex inh -1.0%, GLA inh pH 4.5 3 and Rango release inh 17%.
For N#CCNc1ccc([N+](=O)[O-])cc1C#N the results were miR-21 reporter 1%, Rango complex inh 0.4%, GLA inh pH 4.5 -4 and Rango release inh -1%.
Screening CN(C)S(=O)(=O)N1CCN(C(=O)c2cccs2)CC1 returned miR-21 reporter -5%, Rango complex inh 0.2%, GLA inh pH 4.5 1 and Rango release inh -4%.
Screening Nc1cc(-c2ccccc2)ccc1O returned miR-21 reporter -21%&-26%, Rango complex inh 0.3%, GLA inh pH 4.5 1&-14 and Rango release inh 8%.

The list is partial; count on the stated rates, not on these rows.
